Bst PK mod – alters activity of Bacillus stearothermophilus pyruvate kinase | partly purified Bacillus stearothermophilus pyruvate kinase, luminescence ATP production; ribose 5-phosphate activator present at AC10 | Potency, µM | 51,000 compounds, 1.2% hits | AID 361; in the data active means potency below about 11 µM; inconclusive means mostly about 12 µM to 25 µM; inactive means weaker than that;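 the screen sought inhibitors and activators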;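 also: potency is read from the fitted curve at half-maximal effect; scaled between full activation by ribose 5 phosphate and full inhibition by luteolin; about four in five hits inhibit and the cells do not say which; series up to 57 µM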
TsaE inh – displaces an ADP probe from E. coli YjeE (TsaE) | P0AF67 | purified YjeE, fluorescence polarisation of a bound ADP probe | Potency, µM | 71,000 compounds, 0.05% hits | AID 605; active = well fitted falling curve; inconclusive = weaker or top-dose-only fall, or a rising curve; inactive = flat or poorly fitted curve;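 also: top concentration of the series not given in the record; excess ADP was the control for the full effect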
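Purified YjeE (10 uM) with BODIPY Texas Red-labeled ADP probe (2 uM); compounds pin-transferred, 15 min at room temperature. Binding inhibition read as decreased fluorescence polarization; ADP titration as control.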
* hit, by the source's call; i = inactive; ? = inconclusive; · = not tested or not shown. Only part of the results is shown (hit frequency here may not be typical).

Below each SMILES: Bst PK mod | TsaE inh
> COc1ccc(Oc2ncc3nc(C)c(=O)n(CCC#N)c3n2)cc1
  · | i
> COCC(=O)Nc1ccc(S(=O)(=O)NCCc2ccccc2)cc1
  >57 | i
> COc1ccc(C(=O)CSc2nnc(C3CCCCC3)n2N)c(OC)c1
  >57 | i
> Cn1c(=O)c2c(nc(SCC(=O)NCc3ccc4c(c3)OCO4)n2Cc2ccccc2)n(C)c1=O
  >57 | i
> O=C(CN1CCN(S(=O)(=O)c2ccc(F)cc2)CC1)Nc1ccc(Cl)c(C(F)(F)F)c1
  >57 | i
> Cc1cc(Cc2cc(Cc3cc(C)cc(C(C)(C)C)c3O)c(C)cc2C)c(O)c(C(C)(C)C)c1
  · | i
> NCCc1ccn[nH]1
  · | i
> O=c1c(-c2cc(F)cc(F)c2)nc2cncnc2n1Cc1ccc(F)cc1
  · | i
> COC(=O)CNC(=O)C1(CC(C)C)C=CCN1C(=O)c1ccccc1 (stereo not drawn)
  · | i
> COC(=O)CC1Oc2ccccc2N(Cc2ccc(C)cc2)C1=O (stereo not drawn)
  >57 | i
> Cc1ccc(S(=O)(=O)N(c2cccc(C(F)(F)F)c2)C2C=CS(=O)(=O)C2)cc1 (stereo not drawn)
  · | i
> CCC(C)NS(=O)(=O)c1ccc(OCC(=O)NCc2ccco2)cc1 (stereo not drawn)
  >57 | i
> CCn1nnnc1SCC(=O)Nc1ccc(OCc2ccccc2)cc1
  >57 | i
> CCc1ccc(NC(=O)CCn2c(=O)oc3ccccc32)cc1
  >57 | i
> Oc1ccccc1C1=Nc2nc3ccccc3n2C(c2ccccc2)C1 (stereo not drawn)
  · | i
> O=C(O)COc1ccc(Cl)cc1CO
  >57 | i
> FC(F)(F)c1ccccc1-c1nccc(NCc2cccs2)n1
  · | i
> O=C(c1cc2ccccn2n1)N1CCCC1
  · | i
> CCC(=O)Nc1cccc(NC(=O)CSc2nnc(C(C)C)n2CC)c1
  >57 | i
> O=C(O)c1ccc(NS(=O)(=O)/C=C/c2ccccc2)cc1O
  i | i
> Cc1cc(NC(=O)CCC2CCCC2)no1
  >57 | i
> CCCCCCN(CCCCCC)C(=O)Cc1c(-c2ccc(Cl)cc2)[nH]c2ccc(Cl)cc12
  · | i
> C1CCC(OCCN2CCN(CCOC3CCCCC3)CC2)CC1
  >57 | i
> O=C(O)c1ccc(NCc2nc3cc4ccccc4cc3[nH]2)cc1
  · | i
> CCN1CCCC1CNC(=O)CSc1cc(=O)n(C)c2cc(Cl)ccc12 (stereo not drawn)
  >57 | i
> O=C(c1cccc2ccccc12)N1CCN(CC2CC=CCC2)CC1 (stereo not drawn)
  i | i
> CC(=O)Nc1ccc(S(=O)(=O)N2CCC(NC(=O)C(Cc3cccn3C)NC(C)=O)CC2)cc1 (stereo not drawn)
  >57 | i
> COc1ccc(OC)c(S(=O)(=O)N2CCN(C)CC2)c1
  >57 | i
> CCN1CCN(C(=O)C2CC(c3ccc(F)cc3)=NO2)CC1 (stereo not drawn)
  · | i
> Cc1ccc(C)c(SCC(=O)Nc2nnc(-c3ccccc3)o2)c1
  3.1* | i
> CCOC(=O)c1ccc2nc(NC(=O)c3cccs3)sc2c1
  i | i
> O=C(NCc1ccco1)c1cnn2c1NC(c1ccc(Br)cc1)CC2C(F)(F)F (stereo not drawn)
  · | i
> Cc1ccc2c(c1)-c1c(ssc1=S)C(C)(C)N2C(=O)CSc1nncn1C
  · | i
> O=S(=O)(NC1CC2CCC1C2)c1ccc(Br)s1 (stereo not drawn)
  >11 | i
> Cn1c(=O)c2cc(S(=O)(=O)NC(C(=O)NCc3cccnc3)c3ccccc3)ccc2n(C)c1=O (stereo not drawn)
  · | i
> COc1ccc(-n2c(=O)c(CCc3ccccc3)nc3cncnc32)cc1
  · | i
> CCOC(=O)CNC(=O)CSc1ncnc2c1cnn2Cc1ccccc1
  >57 | i
> CC(=O)N=c1sc(C(C)(C)C)c(C)n1C
  >57 | i
> COc1ccccc1CN1CCC2(CC1)CCN(S(C)(=O)=O)CC2
  · | i
> COc1cc(C2CC(=O)c3cnc(NC(=O)COc4ccccc4)nc3C2)cc(OC)c1OC (stereo not drawn)
  >57 | i
> O=C(Nc1ccccn1)N1CCOCC1
  >57 | i
> N#Cc1ccc(CSc2nnc(NC(=O)CN3C(=O)C4CC=CCC4C3=O)s2)cc1 (stereo not drawn)
  >57 | i
> O=C1CN(c2ccccc2Cl)C(=O)CN1c1ccccc1Cl
  >57 | i
> CC(=O)c1cnc(Nc2nc(C)c3ccccc3n2)nc1C
  >57 | i
> CCCSc1oc(-c2ccco2)nc1S(=O)(=O)c1ccccc1
  >57 | i
> Cc1ccc(S(=O)(=O)N2CCOCC2)cc1C(=O)NCc1ccco1
  >57 | i
> COc1ccc(OC)c(C(=O)CSc2nnc(-c3cccs3)o2)c1
  · | i
> COc1ccc(NC(C)=O)cc1NC(=O)CN1CCN(C2c3ccccc3-c3ccccc32)CC1
  >57 | i
> O=C(c1cccs1)N1CCC(N2CCN(c3ccccc3)CC2)CC1
  >26 | ·
> COc1ccccc1OCc1nc2ccccc2[nH]1
  · | i
> COc1cccc(Cn2c(=O)cnc3cnc(Oc4ccccc4)nc32)c1
  · | i
> COc1ccc(C2C(C(C)=O)=C(C)Nc3ncnn32)cc1OC (stereo not drawn)
  >57 | i
> CN1CCN(C(=O)c2ccc(COc3ccc(Cl)cc3Cl)cc2)CC1
  · | i
> CN1CCN(c2ccccc2NC(=O)c2cc(Br)ccc2Cl)CC1
  >57 | i
> CC(C)C[C@@H](CC(=O)N[C@H](CC(=O)N[C@@H]1CCCC[C@H]1C(=O)N[C@H](CC(=O)N[C@@H](CCC(=O)O)CC(=O)O)Cc1ccccc1)C(C)C)NC(=O)[C@@H]1CNCC[C@H]1N
  · | i
> Cn1c(=O)c2c(nc(CN3CCC(C(N)=O)CC3)n2CCc2ccccc2)n(C)c1=O
  >57 | i
> CCC(=O)OCCn1c(=O)c2cc3c(=O)n(CCOC(=O)CC)c(=O)c3cc2c1=O
  · | i
> CC1(C)SC2c3ccccc3C(=O)N2[C@@H]1C(=O)NCc1ccco1 (stereo partly drawn)
  >57 | i
> COC(=O)c1ccccc1NC(=O)C1CCCCC1C(=O)O (stereo not drawn)
  >57 | i
> N#CC(C(=O)NCc1ccco1)c1nc2ccccc2nc1N1CCOCC1 (stereo not drawn)
  · | i

Later entries
Below each SMILES: Bst PK mod | TsaE inh
> CCC1CCCCN1CCCNC(=O)COc1cc(=O)n(C)c2ccccc12 (stereo not drawn)
  >57 | i
> CSc1nc2ccccc2n1CC(=O)Nc1ccccc1
  · | i
> Cc1ccc(-c2noc(CNCCCN(C)C)n2)cc1
  >57 | i
> Cc1noc(/C=C/N(C)C)c1S(=O)(=O)N1CCCC(C(=O)NCCC2=CCCCC2)C1 (stereo not drawn)
  · | i
> O=C(O)CCCC(=O)Nc1cccc(C(F)(F)F)c1
  · | i
> O=P1(O)C=C(c2ccccc2)NC(c2ccccc2)=C1
  >57 | i
> O=C1c2ccncc2C(=O)N1CO
  >57 | i
> Cc1cc(NC(CC(C)C)C(=O)O)nc(Cc2ccccc2)n1 (stereo not drawn)
  >26 | ·
> O=C(Oc1ccccc1)N1CCC2(CC1)CN(c1ccccc1)C2
  · | i
> CCC1Oc2ccccc2N(CC(=O)NCCCN2CCC(C)CC2)C1=O (stereo not drawn)
  >57 | i
> O=C(CN(Cc1ccccc1)C(=O)c1ccc2c(c1)OCCO2)NCc1ccc2c(c1)OCO2
  >57 | i
> O=C(O)c1ccccc1S
  >11 | ·
> CCOC(=O)N1CCC(NC(=O)CCC(=O)N2CC(C)Oc3ccccc32)CC1 (stereo not drawn)
  >57 | i
> CN(C)CCCN1c2ccccc2Sc2ccc3ccccc3c21
  · | i
> O=C(CCCCCn1c(=O)[nH]c2ccccc2c1=O)N1CCN(Cc2ccc3c(c2)OCO3)CC1
  >57 | i
> CC(C[N+](C)(C)C)OC(N)=O (stereo not drawn)
  >26 | ·
> COCc1nnc(NS(=O)(=O)c2ccccc2)s1
  >57 | i
> COc1ccccc1C(=O)Nn1c(C2CCC2)nc2ccccc2c1=O
  >57 | i
> O=C(Nc1cccc(-c2cnc3ccccc3n2)c1)c1ccco1
  ? | i
> COC(=O)C1CC1C(NC(=O)[C@H]1CCCCN1)c1ccccc1 (stereo partly drawn)
  · | i
> Cc1cc2ncn(S(=O)(=O)c3ccc(S(=O)(=O)N4CCOCC4)cc3)c2cc1C
  >57 | i
> O=C(Nc1ccc2c(c1)OCO2)OCc1ccccc1
  · | i
> O=C(c1ccccc1CCc1ccccc1)N1CCN(c2ccccn2)CC1
  >57 | i
> CCOc1cc(C(=O)NCc2ccncc2)cc(OCC)c1OCC
  >57 | i
> COCCCn1c(CCC(=O)O)ccc1-c1cccs1
  >57 | i
> C=C(C)COc1ccc(-c2[nH]ncc2Oc2ccccc2OCC)c(O)c1
  >57 | i
> CCN(CC(=O)Nc1ccccc1C(=O)OC)S(=O)(=O)c1ccccc1
  >57 | i
> CC(=O)Nc1ccc(S(=O)(=O)N2CCN(C(=O)Cc3ccccc3)CC2)cc1
  >57 | i
> Cc1ccc(-n2ncc3c2ncn2c(C)nnc32)cc1C
  · | i
> CC1=C(C(=O)N(C)Cc2ccccc2)C2(CCC(C)CC2)OC1=O (stereo not drawn)
  · | i

Record cards, as listed above. Order of screens: Bst PK mod	TsaE inh
`Cc1noc(/C=C/N(C)C)c1S(=O)(=O)N1CCCC(C(=O)NCCC2=CCCCC2)C1` (stereo not drawn) across the screens: ·	i
`O=C(CN(Cc1ccccc1)C(=O)c1ccc2c(c1)OCCO2)NCc1ccc2c(c1)OCO2` across the screens: >57	i
`O=C(Nc1cccc(-c2cnc3ccccc3n2)c1)c1ccco1` across the screens: ?	i
`O=C(CCCCCn1c(=O)[nH]c2ccccc2c1=O)N1CCN(Cc2ccc3c(c2)OCO3)CC1` across the screens: >57	i

Returning to the listing, repeating the two entries before the break.
Below each SMILES: Bst PK mod | TsaE inh
> Cc1ccc(-n2ncc3c2ncn2c(C)nnc32)cc1C
  · | i
> CC1=C(C(=O)N(C)Cc2ccccc2)C2(CCC(C)CC2)OC1=O (stereo not drawn)
  · | i
> Cc1ccc(S(=O)(=O)Cc2ccc(C(=O)NCc3ccc4c(c3)OCO4)o2)cc1
  >57 | i
> CCC(=O)NCCc1cc2ccc(C)cc2[nH]c1=O
  · | i
> O=S(=O)(NCc1cccnc1)c1ccc(Cl)c(Cl)c1Cl
  ? | i
> N#CCCn1c(=O)c(-c2cc(F)cc(F)c2)nc2cnc(OCc3ccccc3)nc21
  · | i
> COc1ccc(N2C(=O)CCC(C(C)=O)=C2C)cc1
  · | i
> COc1ccccc1N1CCN(c2ncnc3c2oc2ccccc23)CC1
  >57 | i
> O=c1cc(O)nc(SCc2ccccc2)[nH]1
  >57 | i
> CCOC(=O)c1csc(NC(=O)c2cc(OC)c(OC)c(OC)c2)n1
  · | i
> Cc1ccc(NC2c3ncccc3C(=O)N2C2CCCCC2)cc1C (stereo not drawn)
  >57 | i
> COC(=O)c1ccc2c(=O)n(CCCN3CCCC3=O)c(=S)[nH]c2c1
  >57 | i
> COCCNC(=O)CSc1nc(-c2ccc(OC)c(OC)c2)cc(C(F)(F)F)n1
  >57 | i
> CCCCC(SCC(=O)Nc1ccccc1)C(=O)O (stereo not drawn)
  >57 | i
> CC1=C(C#N)C(C(F)(F)F)(C(F)(F)F)N=C(c2ccco2)N1
  >57 | i
> COc1cc(S(=O)(=O)N(Cc2cccnc2)Cc2ccco2)ccc1-n1cnnn1
  >57 | i
> CCN(CCCNC(=O)CCCCn1c(=O)[nH]c2ccccc2c1=O)c1ccccc1
  >57 | i
> Clc1ccccc1-c1nc(-c2ccccc2)n[nH]1
  i | i
> COc1ccccc1-n1c(CNC(=O)c2ccco2)nnc1SCC(=O)Nc1ccc(F)cc1
  >57 | i
> N#C/C(C(=O)N1CCCCC1)=C1\Nc2ccccc2S1
  >26 | ·
> Cc1cccc(N2CCN(C(=O)Cn3nc(Cc4ccncc4)c4ccccc4c3=O)CC2)c1C
  · | i
> c1ccc(Cn2nnnc2C(c2ccncc2)N2CCOCC2)cc1 (stereo not drawn)
  >57 | i
> Cc1nnc(Oc2ccccc2)c2ccccc12
  >57 | i
> O=C(Cc1ccccc1)N(c1ccc(F)cc1)C1C=CS(=O)(=O)C1 (stereo not drawn)
  >57 | i
> O=C(O)CC(NC(=O)OCc1ccccc1)c1ccccc1 (stereo not drawn)
  · | i
> CCN(CC(N)=O)S(=O)(=O)c1ccc(Br)cc1
  >57 | i
> Cn1c(CCN2CCN(c3ccccc3)CC2)nc2cc(NC(=O)c3ccco3)ccc21
  >57 | i
> CCN(CC)S(=O)(=O)c1cc(Br)ccc1OC
  · | i
> Cc1cc(NS(=O)(=O)c2ccc(NC(=O)Nc3ccc4c(c3)OCO4)cc2)no1
  >57 | i
> CCNc1ncc2nc(-c3ccc(OC)cc3)c(=O)n(CCOC)c2n1
  · | i
> CC(=O)c1ccc(C(C)(C)c2ccc(C(C)=O)s2)s1
  >57 | i
> CN1CCN(c2ccccc2NC(=O)c2cccc(OCc3ccccc3)c2)CC1
  >57 | i
> CCCCCn1c(CN2CCN(c3cc(Cl)ccc3C)CC2)nc2c1c(=O)[nH]c(=O)n2C
  >57 | i
> CC1(C)Cc2c(sc3[nH]c(=S)n(Cc4ccco4)c(=O)c23)CO1
  >26 | ·
> CN1C(=O)C(O)(CC(=O)c2ccccn2)c2cc(Br)ccc21 (stereo not drawn)
  · | i
> Cc1cccc(N(C)C(=S)Oc2ccc3ccccc3c2)c1
  >26 | i
> C=C(C)CSc1nnc2[nH]c(=O)cc(N)n12
  >57 | i
